CBX7 AlphaScr: blocks human CBX7 binding to H3K27me3 peptide; O95931; AlphaScreen His6-CBX7 / biotin-H3K27me3 peptide binding; active compounds read low; normalised signal (fraction of DMSO) (concentration not given with the values); 1.1% of 66,000 active; AID 1224903; in the data active = normalised signal below about 0.5;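 note: 100 nL library stock added to about 20 µL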
Target sequence (O95931 whole entry, looked up): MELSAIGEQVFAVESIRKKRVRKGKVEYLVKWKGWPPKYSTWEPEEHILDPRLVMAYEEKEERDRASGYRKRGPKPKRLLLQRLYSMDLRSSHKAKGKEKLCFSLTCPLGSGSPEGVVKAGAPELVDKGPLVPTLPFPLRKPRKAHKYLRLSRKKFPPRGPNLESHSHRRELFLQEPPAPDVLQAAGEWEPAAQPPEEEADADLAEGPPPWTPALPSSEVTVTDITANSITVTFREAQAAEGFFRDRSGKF
CBX7 AlphaScr z-score: also measured in CBX7 AlphaScr; calls as there; z-score; measured here: z-score of CBX7 signal; some inactives read as strong as hits; reference of the scale not given here;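 same signal on another scale; lower means less binding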
* hit, by the source's call; & = joins results of further samples.

Start of the data: the first seven entries, ahead of the listing:
| molecule | CBX7 AlphaScr | CBX7 AlphaScr z-score |
| --- | --- | --- |
| Cc1cc2c(cc1C)NC(CC(=O)Nc1ccc(Br)cc1)C(=O)N2 (stereo not drawn) | 1 | 0.15 |
| COc1ccc(-n2c(Cc3cc(=O)[nH]c(=O)[nH]3)nnc2SCC(=O)NC2CCCC2)cc1 | 1.1 | 0.19 |
| CCc1ccc(-n2cnc3cc(C(=O)NC4CCCCC4C)ccc32)cc1 (stereo not drawn) | 1 | -0.045 |
| COc1ccc(CCNC(=O)Cc2ccc(NC3=NC4CS(=O)(=O)CC4S3)cc2)cc1OC (stereo not drawn) | 0.95 | -0.57 |
| O=S1(=O)N=C(N2CCCCCC2)c2ccccc21 | 1 | 1.7 |
| Cc1ccc(-c2csc(NC(=O)c3c(-c4ccccc4Cl)noc3C)n2)c(C)c1 | 1 | 0.2 |
| Cn1c(C(=O)O)c(CC(=O)N2CCC(C(N)=O)CC2)c2ccccc21 | 1 | 0.51 |

This part in full, from the first entry:
| molecule | CBX7 AlphaScr | CBX7 AlphaScr z-score |
| --- | --- | --- |
| Cc1cc2c(cc1C)NC(CC(=O)Nc1ccc(Br)cc1)C(=O)N2 (stereo not drawn) | 1 | 0.15 |
| COc1ccc(-n2c(Cc3cc(=O)[nH]c(=O)[nH]3)nnc2SCC(=O)NC2CCCC2)cc1 | 1.1 | 0.19 |
| CCc1ccc(-n2cnc3cc(C(=O)NC4CCCCC4C)ccc32)cc1 (stereo not drawn) | 1 | -0.045 |
| COc1ccc(CCNC(=O)Cc2ccc(NC3=NC4CS(=O)(=O)CC4S3)cc2)cc1OC (stereo not drawn) | 0.95 | -0.57 |
| O=S1(=O)N=C(N2CCCCCC2)c2ccccc21 | 1 | 1.7 |
| Cc1ccc(-c2csc(NC(=O)c3c(-c4ccccc4Cl)noc3C)n2)c(C)c1 | 1 | 0.2 |
| Cn1c(C(=O)O)c(CC(=O)N2CCC(C(N)=O)CC2)c2ccccc21 | 1 | 0.51 |
| Cc1ccc(Cn2nnc3c(=O)[nH]c(C4CCN(C(=O)CC(C)(C)C)CC4)nc32)cc1 | 0.94 | -1.3 |
| CC(=O)Nc1cc(-c2nc3ccccc3s2)ccc1C | 1.1 | 0.75 |
| Cc1sc2nc(-c3ccccc3O)[nH]c(=O)c2c1C | 1.2 | 1.5 |
| Cc1oc(-c2ccccc2F)nc1CSCC(=O)NCCc1ccccc1 | 0.93 | -1.3 |
| CCc1ccc(-c2nc(CN3CCC(C(=O)NCc4ccc(Cl)cc4)CC3)c(C)o2)cc1 | 0.95 | -0.53 |
| COc1ccc(NC(=O)CSc2nccn2-c2cccc(C)c2C)cc1 | 0.85 | -0.15 |
| Cc1cc(C)n2c(Nc3cccc(C(F)(F)F)c3)c(-c3ccc(F)cc3)nc2n1 | 0.75 | -4.9 |
| CCc1ccc2oc(-c3ccc(NC(=O)c4cc(OC)cc(OC)c4)cc3)nc2c1 | 0.95 | -0.82 |
| Cc1oc(-c2ccccc2F)nc1CSCC(=O)NCc1ccccc1Cl | 1 | -0.014 |
| COc1ccc(-c2noc(CCC(=O)NCC3CCN(Cc4cccc(C)c4)CC3)n2)cc1 | 1 | 0.039 |
| O=C(CCNC(=O)Cn1ccc2ccccc2c1=O)NCCCN1CCOCC1 | 1.1 | 1.4 |
| O=C(NCCN1CCCC1)c1ccc2c(c1)ncn2C1CCCCC1 | 1.1 | 3.8 |
| COc1cc2c(c(OC)c1)C(c1ccc(Cl)cc1)CC(=O)N2 (stereo not drawn) | 0.93 | -0.93 |
| O=C(CN1C(=O)CCC1=O)Nc1nc(-c2ccc(Br)cc2)cs1 | 1.2 | 1.3 |
| C=CCn1c(SCC(=O)Nc2cccc(Br)c2)nnc1-c1cccnc1 | 1.1 | 0.67 |
| Cc1cc(Nc2cc(C(F)(F)F)ccc2Cl)n2ncnc2n1 | 1 | 0.87 |
| COc1cc(OC)c(NC(=O)c2cnc(Nc3ccc(C)c(Cl)c3)c3ccccc23)cc1Cl | 1.1 | 2.9 |
| CC(=O)Nc1cccc(Nc2nc(-c3ccccc3F)nc3ccccc23)c1 | 0.98 | -0.11 |
| COc1ccc(OC2C(=O)N(c3ccc(C)c(C)c3)C2c2ccc(C)cc2)cc1 (stereo not drawn) | 1.2 | 1.8 |
| Cc1ccc(Nc2nc3nonc3nc2NC(C)C)cc1C | 0.85 | -1.8 |
| CCOc1cccc(C(=O)N(Cc2ccc(OC)cc2)C2CCS(=O)(=O)C2)c1 (stereo not drawn) | 1 | -0.0069 |
| Cc1ccc(C)c(NS(=O)(=O)c2ccc3nc(-c4ccccc4)[nH]c3c2)c1 | 0.93 | -0.097 |
| O=C(Nc1nc(-c2ccccn2)cs1)c1ccc(Oc2ccccc2)cc1 | 0.12* | -16* |
| CCOc1ccccc1C1CC(c2ccc(OC)cc2)Nc2ncnn21 (stereo not drawn) | 1 | 0.5 |
| COc1ccc(C)cc1NC(=O)CN(C)S(=O)(=O)c1ccc2nc(C)sc2c1 | 1.3 | 2 |
| N#Cc1c(NC(=O)c2cc(-c3cccc(Cl)c3)on2)sc2c1CCCC2 | 1.2 | 1.3 |
| CC1C2c3ccccc3C(c3ccccc32)C1C(=O)Nc1ccc(Cl)cc1Cl (stereo not drawn) | 1.1 | 1.6 |
| Cc1cccc(C(=O)NCC(C)(C)CN=C2NS(=O)(=O)c3ccccc32)c1 | 1.1 | 2.1 |
| O=C(CN1C(=O)CSc2ccc(S(=O)(=O)N3CCCC3)cc21)NCCCN1CCCCC1 | 1 | 1.5 |
| CCOc1ccc(CCNC(=O)c2cc3ccccn3n2)cc1 | 1.2 | 1.2 |
| CC(CNC(=O)C1CCN(c2nc3ccccc3[nH]2)CC1)c1ccccc1 (stereo not drawn) | 1.1 | 1.3 |
| CC(=O)Nc1nonc1NC(=O)CSc1nccc(=O)[nH]1 | 1.2 | 3.5 |
| COc1ccc(-c2nc3ccccc3n2Cc2cccc(C)c2)cc1 | 1 | 0.37 |
| CCN1CCN(CCNC(=O)c2cc3sccc3n2Cc2ccc(Cl)cc2)CC1 | 0.92 | -2.1 |
| O=C1C2C3c4ccccc4C(c4ccccc43)C2C(=O)N1c1nccs1 (stereo not drawn) | 1 | 0.72 |
| CCN1CCN(CCNC(=O)CN2C(=O)COc3ccc(S(=O)(=O)N4CCOCC4)cc32)CC1 | 1 | 0.37 |
| CC1CCc2c(sc(NC(=O)c3ccccc3)c2C(=O)N2CCCCC2)C1 (stereo not drawn) | 1.1 | 2.6 |
| COc1ccccc1OCC(=O)N(Cc1nc(-c2ccccc2)no1)C(C)C | 0.97 | -0.65 |
| CCCN1Cc2cccc(C(=O)Nc3ccc(F)cc3)c2C1=O | 1 | -0.0016 |
| O=C1CC(c2ccncc2)c2cc3c(cc2N1)OCO3 (stereo not drawn) | 1.1 | 1.4 |
| COc1cccc(NC(=O)CSc2nc3ccccc3nc2Cc2ccc(F)cc2)c1 | 1 | 0.52 |
| Cc1ccc(C)c(Cc2c(C)nc3c(C(=O)NCCc4ccccc4)cnn3c2C)c1 | 0.86 | -5.4 |
| Cc1ccc(-c2nnc(Nc3cccc(Br)c3)c3ccccc23)cc1S(=O)(=O)N1CCCCC1 | 1 | -0.013 |
| O=C(CCc1nc(-c2ccccc2F)no1)N1CCC(Cc2ccccc2)CC1 | 1.1 | 2.2 |
| CCOc1ccc(-c2cc(C(=O)NCCN(CC)CC)c3ccccc3n2)cc1 | 1 | -0.0074 |
| CCN(CC)S(=O)(=O)c1ccc2c(c1)N(CC(=O)Nc1nccs1)C(=O)CS2 | 1 | 0.28 |
| CCN(CC)CCCC(C)Nc1nc(/C=C/c2ccc(Br)cc2)nc2cc(Cl)ccc12 (stereo not drawn) | 0.98&1 | -0.52&0.61 |
| CCOc1ccc(C2CC(=O)Nc3cc4c(cc32)OCO4)cc1Cl (stereo not drawn) | 0.52 | -6.2 |
| Cc1cc(=O)n2nc(N3CCCC(C(=O)NC4CCCCCC4)C3)sc2n1 (stereo not drawn) | 1.1 | 0.72 |

(more compounds)
| molecule | CBX7 AlphaScr | CBX7 AlphaScr z-score |
| --- | --- | --- |
| CC1(C)CC(=O)N(CC(=O)NCc2ccc(F)cc2)c2ccccc2S1 | 1.2 | 3.8 |
| O=C(O)CCC(=O)Nc1sc2c(c1C(=O)Nc1ccc(Cl)cc1)CCCC2 | 1.1 | 1.8 |
| COc1ccc(C(=O)NC(C)C(c2cccs2)N2CCN(c3ccccc3)CC2)cc1 (stereo not drawn) | 0.77 | -2.5 |
| Cc1cc(NC(=O)NC(=O)c2cccc(Cl)c2)n[nH]1 | 1.2 | 1.8 |
| CCOC(=O)c1oc2ccccc2c1NC(=O)c1ccc(S(=O)(=O)N2CCCC(C)C2)cc1 (stereo not drawn) | 1 | 0.42 |
| COc1ccc(N(CC(=O)Nc2ccc(C)cc2)S(=O)(=O)c2c(C)nn(C)c2C)cc1 | 1.1 | 0.5 |
| COCCN1Cc2cccc(C(=O)Nc3ccc(F)c(Cl)c3)c2C1=O | 1.1 | 1.7 |
| O=C(NC1CCCCC1)C1c2cccn2CC(=O)N1CCc1ccccc1 (stereo not drawn) | 0.96 | -1 |
| O=C1c2cccnc2C(=O)N1c1ccc(-c2nc3cc(Cl)ccc3o2)cc1 | 1 | 0.65 |
| Cc1cccc(NC(=O)CN(C)S(=O)(=O)c2cnc[nH]2)c1C | 0.88 | -1.7 |
| Cc1oc(-c2cccc(Br)c2)nc1CN1CCC(C(=O)NCc2ccc(F)cc2)CC1 | 0.97 | -0.61 |
| COC(=O)c1ccccc1NC(=O)c1cc2c(s1)-c1c(C)cccc1OC2 | 1.1 | 3.3 |
| COc1cccc(NC(=O)CN(c2ccc(C)cc2)S(=O)(=O)c2cccnc2)c1 | 0.93 | -1.1 |
| CCOC(=O)c1cc(-c2ccc(OC)cc2)n(CCC(=O)Nc2cc(C)ccc2C)c1C | 1.1 | 2.1 |
| CCOc1cc2c(cc1OCC)C(c1ccccc1F)CC(=O)N2 (stereo not drawn) | 0.97 | -0.33 |
| Clc1ccccc1C1CC(c2cccs2)Nc2ncnn21 (stereo not drawn) | 1 | 0.0047 |
| CCOc1ccc2c(c1)c(=O)c(S(=O)(=O)c1ccc(C)cc1)cn2CC(=O)Nc1ccccc1 | 0.99 | -0.19 |
| COc1cccc2cc(-c3nc4ccccc4o3)c(=O)oc12 | 1 | 0.32 |
| Cc1cccc(-c2nc(Cn3c(SCc4ccccc4F)nc4ccncc43)c(C)o2)c1 | 1 | 1.7 |
| CCc1ccccc1Nc1nc(-c2ccc(OC)c(OC)c2)cs1 | 0.65 | -5 |
| CCc1ccc(NC(=O)[C@H](CCSC)N2Cc3ccccc3C2=O)cc1 | 0.99 | -0.16 |
| CCOc1ccc(C2C(=O)N(C3CCCCC3)CC(=O)N2Cc2ccccc2OC)cc1OC (stereo not drawn) | 1.1 | 0.54 |
| COc1ccc(NC(=O)C2CCCN(S(=O)(=O)c3ccc(Br)s3)C2)cc1 (stereo not drawn) | 1.1 | 1 |
| NC(=O)C1CCN(C2CC(=O)N(c3ccc(Cl)cc3)C2=O)CC1 (stereo not drawn) | 1.1 | 1.2 |
| Cc1ccc(-c2nc3cnccn3c2Nc2c(C)cccc2C)s1 | 1.2 | 3.9 |
| O=C(Nc1ccccc1-c1nc2ccccc2s1)c1ccc(F)cc1 | 1.2 | 4.9 |
| CCOc1ccc(NC(=O)c2cccc3c2C(=O)N(Cc2cccnc2)C3)cc1 | 0.97 | -0.33 |
| Cc1sc2ncn(CC(=O)NCC(=O)NCCN3CCOCC3)c(=O)c2c1C | 1.2 | 1.7 |
| CCN1C(=O)c2ccccc2Sc2ccc(C(=O)NCCN3CCCCCC3)cc21 | 1.1 | 2.9 |
| Cc1cccc(CN2CCN(CC(=O)NCc3cccnc3)C2=O)c1 | 1 | 2 |
| O=C(NCC1CCN(C2CCCC2)C1)c1cnn2ccccc12 (stereo not drawn) | 1 | 0.037 |
| O=C(c1nn2c(C(F)(F)F)cc(-c3ccc(F)cc3)nc2c1Cl)N1CCCC1 | 0.99 | -0.048 |
| CCOCCCNC(=O)CCc1nc(-c2ccccc2F)no1 | 0.98 | -0.38 |
| COc1ccc(N2CC(C(=O)Nc3ccc(C(C)C)cc3)CC2=O)cc1 (stereo not drawn) | 1.1 | 0.076 |
| CCCCCC1CCC(c2ccc(C#N)nc2)CC1 (stereo not drawn) | 1.2 | 2.7 |
| COc1ccc(NC(=O)Cn2ncc3c2-c2cc(C)ccc2OC3)cc1 | 0.96 | -0.78 |
| CC1CCC(NC(=O)C2CCN(c3nc4ccccc4[nH]3)CC2)CC1 (stereo not drawn) | 1.1 | 0.66 |
| COc1ccc2cc(C#N)c(Nc3cc(C)ccc3OC)nc2c1 | 1.2 | 3.1 |
| COC(=O)c1ccc(NC(=O)CSc2nnc(Cc3cccn3C)n2-c2ccc(C)cc2)cc1 | 0.81 | -4.6 |
| O=C(Cn1cc(S(=O)(=O)c2ccccc2)c(=O)c2ccccc21)Nc1ccccc1 | 1 | 1.2 |
| CC(=O)Nc1ccc(NS(=O)(=O)c2cccc3cccnc23)cc1 | 1 | 0.024 |
| COc1ccc(Br)cc1CNC(=O)CCc1nc(-c2ccc(C)cc2)no1 | 1 | 0.6 |
| COC(CNC(=O)c1ccc2c(c1)N=C(C)c1c(C)ccc(C)c1S2)OC | 1.1 | 0.7 |
| COCCNC(=O)CN1CCCN(Cc2ccc(F)cc2Cl)C1=O | 0.93 | -1.1 |
| FC(F)(F)c1nnc2ccc(Sc3ccccn3)nn12 | 1.1 | 2.6 |
| CCc1c(C)nc(-n2nc(C)cc2C)nc1Nc1ccccc1 | 0.88 | -1.6 |
| CCCCNC(=O)c1ccc2c(c1)N(Cc1ccccc1F)C(=O)CS2 | 1.1 | 2.1 |
| COc1ccc(OC)c(NC(=O)CC23CC4CC(C2)CC(n2nnc(C)n2)(C4)C3)c1 | 1 | -0.064 |
| Cc1ccc(OCCSc2nc3ccccc3n2CC(O)CO)c(C(C)C)c1 (stereo not drawn) | 0.87 | -0.47 |
| Cc1ccc(N2C(=O)c3ccccc3C2Nc2cccc(Cl)c2Cl)nc1 (stereo not drawn) | 0.87 | -1.8 |
| NC(=O)CSc1nnc(Cc2cc(=O)[nH]c(=O)[nH]2)n1-c1ccccc1 | 1.1 | 2 |
| CCOc1ccc(Nc2cc(C(=O)NC3CCC(C)CC3)c3ccccc3n2)cc1 (stereo not drawn) | 0.94 | -1.6 |
| O=C(c1ccc(Cl)cc1)c1conc1C(=O)c1ccccc1 | 1 | 0.071 |

Some of the compounds tested; the hit share may differ from the screen's.
